# High-throughput results (PubChem BioAssay)
# RanGTP-Imp inh – inhibitors of RanGTP-importin-beta interaction, primary screen, biochemical, FRET, CFP-Ran, YFP-importin-beta, homogeneous. Ran GTPase (GTP-bound) - importin-beta complex. cell-free CFP-Ran/YFP-importin-beta FRET ratio. inhibition, % (test concentration not listed). actives 1.1% (n = 300,000);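 active = most replicates above 15%; inconclusive = exactly half above 15%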;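 also: 0% = DMSO wells and 100% = Ran loaded with GDP instead of GTP; wells of about 40 µL received 100 nL stock; the first replicate is given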
# MLL AF4-AF9 inh – inhibitors of AF4 peptide binding to AF9, primary screen, biochemical, AlphaScreen, biotin-AF4 peptide, FLAG-AF9, single point; actives 0.47% (n = 350,000); Protein AF-9 (Homo sapiens), P42568; inhibition, % at 10 µM;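 active = every replicate reaching a set inhibition limit, whatever the replicate mean, cut at about 25% in these data; inconclusive = mean inhibition reaches that limit but some replicates miss it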;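 also: 0% = plate neutral control median and 100% = total signal loss; the record names both 10 and 1 µM as test concentration; the first replicate is given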
# Target sequence (P42568 whole entry, looked up): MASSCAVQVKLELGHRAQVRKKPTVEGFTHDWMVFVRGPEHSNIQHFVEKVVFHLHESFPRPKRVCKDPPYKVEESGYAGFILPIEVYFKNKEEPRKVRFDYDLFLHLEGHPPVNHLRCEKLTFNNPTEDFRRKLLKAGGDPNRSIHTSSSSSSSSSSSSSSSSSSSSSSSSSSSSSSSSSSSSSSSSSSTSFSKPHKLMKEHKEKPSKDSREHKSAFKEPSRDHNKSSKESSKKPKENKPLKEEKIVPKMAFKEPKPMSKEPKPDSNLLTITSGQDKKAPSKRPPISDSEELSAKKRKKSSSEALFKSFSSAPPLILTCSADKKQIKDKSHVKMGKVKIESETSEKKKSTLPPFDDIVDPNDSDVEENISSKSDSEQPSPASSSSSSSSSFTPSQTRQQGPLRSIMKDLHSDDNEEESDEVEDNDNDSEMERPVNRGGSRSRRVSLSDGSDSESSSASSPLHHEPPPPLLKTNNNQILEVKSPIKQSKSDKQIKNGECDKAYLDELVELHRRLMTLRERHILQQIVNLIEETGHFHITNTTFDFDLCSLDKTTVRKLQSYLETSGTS
# Vif A3G – inhibitors of Vif binding to APOBEC3G peptide, primary screen, biochemical, TR-FRET, GST-Vif 1-94, biotin-A3G peptide, dose response retest (AID 1117319); Virion infectivity factor (Human immunodeficiency virus type 1 group M subtype B (isolate …; TR-FRET GST-Vif / biotin-A3G peptide binding; higher % means a stronger effect; test concentration not given here; strong numbers were not always called active; inhibition, %; hits with a dose series show IC50 in µM; actives 0.57% (n = 260,000);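 active = above the screen mean plus three standard deviations and confirmed in dose response; inconclusive = results disagree or hit not tested in dose response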;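 also: Vif residues 1-94 fused to GST binding biotinylated APOBEC3G peptide 110-148; 0% = full assay without inhibitor and 100% = GST in place of GST-Vif; retest series ran down from 100 µM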
# HNF4A DNA FP – change in binding of human HNF4A to DNA, primary screen, biochemical, fluorescence polarization, FITC-DNA; actives 0.3% (n = 360,000); Hepatocyte nuclear factor 4-alpha (Homo sapiens), P41235; 1 h; activity change, % at 10 µM; AID 1224865, 2016; in the data active = activity change above about 30%, passing the limit was not always enough;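 also: controls were the assay level and a saturating level of protein; the project sought stronger binding though the title names inhibitors; some compounds called inactive have numbers as strong as hits; positive values seem to mean higher polarization but the record does not say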
# FGF22 binding – binders of human FGF22 protein, primary screen, FGF22 synaptogenesis inhibitor project, biophysical, thermal shift, single point. Fibroblast growth factor 22 (Homo sapiens), Q9HCT0. recombinant FGF22 thermal shift, SYPRO orange fluorescence; percent of sucrose octasulfate shift, DMSO zero. calls only at 9.99 µM. actives 1.5% (n = 340,000);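 active = melting point raised past a set limit in the mean and every replicate; inconclusive = no clear call; three in four hits are not shown here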
# Target sequence (Q9HCT0 whole entry, looked up): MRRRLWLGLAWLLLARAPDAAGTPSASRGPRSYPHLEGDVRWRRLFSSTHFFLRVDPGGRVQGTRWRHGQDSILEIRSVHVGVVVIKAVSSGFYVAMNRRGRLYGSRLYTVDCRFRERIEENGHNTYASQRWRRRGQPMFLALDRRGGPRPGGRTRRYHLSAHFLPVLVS
# UCH37 DUB inh – inhibitors of human UCH37 deubiquitinase, primary screen, biochemical, Ub-AMC cleavage, fluorescence. AID 588478, 2011. Ubiquitin carboxyl-terminal hydrolase isozyme L5 (Homo sapiens), Q9Y5K5. actives 0.33% (n = 330,000). inhibition, % (test concentration not listed). purified proteasome/UCH37;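 active = mean of two replicates above 20%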;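 also: 0% = compound-free wells with enzyme and 100% = wells lacking proteasome; stock transfer was 100 nL into about 20 µL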
# Target sequence (Q9Y5K5 whole entry, looked up): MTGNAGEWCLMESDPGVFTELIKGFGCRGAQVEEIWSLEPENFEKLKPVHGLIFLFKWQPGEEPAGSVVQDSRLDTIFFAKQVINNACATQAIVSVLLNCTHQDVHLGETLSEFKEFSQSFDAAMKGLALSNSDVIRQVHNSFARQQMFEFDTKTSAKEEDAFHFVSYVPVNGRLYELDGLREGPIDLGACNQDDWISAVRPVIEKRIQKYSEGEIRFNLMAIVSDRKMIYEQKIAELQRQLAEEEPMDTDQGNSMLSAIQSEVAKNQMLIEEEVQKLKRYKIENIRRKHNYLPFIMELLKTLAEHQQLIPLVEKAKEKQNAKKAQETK
#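 Material: human UCH37 enzyme supplied as purified proteasome complex. Measure: % inhibition of Ub-AMC cleavage fluorescence. Medium: pH 7.4 Tris-HCl (50 mM) with ovalbumin, ATP-MgCl2, DTT. Times: 30 min preincubation with enzyme, 25 min cleavage at room temperature. Detection: AMC fluorescence intensity at 355/460 nm.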
# E coli growth – E. coli growth inhibition, primary screen, OD600. Escherichia coli growth, 23 h; hits give low values. OD600 absorbance (concentration not given with the values). actives 0.21% (n = 330,000);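 active = OD600 absorbance below the run mean of sample wells minus 3.6 SD, in any replicate, cut at about 0.56 in these data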;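 also: stock transfer was 300 nL into about 60 µL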
# * = called active by the depositor; i = inactive; ? = inconclusive; nt = not tested or not shown.
SMILES,RanGTP-Imp inh,MLL AF4-AF9 inh,Vif A3G,HNF4A DNA FP,FGF22 binding,UCH37 DUB inh,E coli growth
O=C(CCC1CCCN(C(=O)c2ccccc2Cl)C1)N1CCN(c2ccccn2)CC1 (centres undefined),2.4,0.6,2%,1.3,i,3.3,0.66
O=[N+]([O-])c1ccc(S(=O)(=O)NN=C2CCCCC2)cc1,nt,-4.2,-1%,4.5,i,2.7,0.66
COc1ccc(C(O)Cn2c(=N)n(CCCN(C)C)c3ccccc32)cc1 (centres undefined),3.4,nt,2%,0.4,nt,-0.3,0.77
CCOc1cccc(-c2c(C(=O)N/N=C/c3c(F)cccc3Cl)nnn2-c2nonc2N)c1,3.9,2.3,nt,-4.1,i,nt,nt
C=CCn1c(SC(CCO)C(=O)NCc2ccco2)nc2sc3c(c2c1=O)CCC3 (centres undefined),-3.3,nt,-5%,0.1,nt,8.2,0.66
CC1CCCC(C)N1S(=O)(=O)c1ccc(Cl)cc1 (centres undefined),1.1,2.2,nt,-0.2,i,5.3,0.71
Cc1c(C(=O)NCc2ccc3c(c2)OCO3)sc2nc(-c3ccc(F)cc3)cn12,-2.7,-2.5,8%,2.7,i,1.7,0.79
N#Cc1ccc(C(=O)OCC(=O)NC(=O)NCc2ccccc2)cc1,nt,6.7,-7%,3.3,i,-2.6,0.72
Cc1ccc(SCc2ccc(C(=O)Nc3cccc([N+](=O)[O-])c3C)cc2)cc1,6.0,2.9,12%,-8.3,i,0.7,0.72
O=C(Nc1cccnc1)c1cc(S(=O)(=O)N2CCCCC2)c(Cl)cc1Cl,-3.3,0.7,nt,0.8,i,1.5,0.71
CSCC(=O)N1CCC(Oc2cccc(C(=O)NCc3ccccn3)c2)CC1,1.3,-3.3,-2%,-3.5,i,0.4,0.68
CCC(=O)N1N=C(c2c(-c3ccccc3)c3cc(Cl)ccc3[nH]c2=O)CC1c1ccco1 (centres undefined),1.0,nt,0%,1.4,nt,-127,0.71
CCC(C)N(CCNC(=O)CC1Oc2ccccc2NC1=O)C1CCCCC1 (centres undefined),0.2,-2.9,5%,-0.7,i,1.3,0.77
COCCCn1cc(CN(C)C2CN(Cc3cn(CCCOC)nn3)S(=O)(=O)C2)nn1 (centres undefined),nt,-1.5,nt,1.9,i,nt,nt
CCN(CC)S(=O)(=O)c1ccc(C(=O)NCCc2cc3c(OC)ccc(OC)c3[nH]c2=O)cc1,-3.3,nt,-2%,1.1,nt,-1.2,0.71
CCC1(c2ccccc2)NC(=O)N(CC(=O)Nc2cc(Cl)ccc2N2CCN(C)CC2)C1=O (centres undefined),nt,15,-8%,2.0,i,1.3,0.65
CN(CC(=O)Nc1c(Cl)cccc1Cl)C(=O)CC1Sc2ccccc2NC1=O (centres undefined),-1.1,-1.6,-2%,1.5,i,-3.0,0.7
CCC1CCCCN1CCCNC(=O)CS(=O)Cc1nc(-c2ccc(OC)c(OC)c2)oc1C (centres undefined),4.6,-0.1,nt,3.2,i,1.0,0.68
Cc1ccc(N(C(=O)c2csnn2)C(C(=O)NC(C)(C)C)c2ccccn2)cc1 (centres undefined),3.3,-1.3,8%,-3.9,i,2.6,0.65
COCCNC(=S)NN=C1CCC(c2ccccc2)CC1 (centres undefined),2.1,5.1,4%,-1.1,nt,0.2,0.66
Cc1c(C(=O)Nc2ccc(S(=O)(=O)Nc3ncccn3)cc2)oc2ccccc12,nt,0.0,6%,-1.1,i,3.0,0.66
Cc1ccc2c(c1)c1c3n2CCN(CC(N)=O)C3CCC1 (centres undefined),-1.0,-35,nt,-4.5,i,-0.8,0.67
CCCc1c(C(=O)Nc2ccc(F)cc2F)cnn1-c1ccccc1,1.3,-5.2,-2%,-0.6,i,5.2,0.68
Cc1ccc(NC(=O)CN2C(=O)NC(C)(c3ccc(Cl)cc3)C2=O)c(Br)c1 (centres undefined),-1.0,-0.5,nt,-1.3,i,3.8,0.69
O=C(O)c1ccc(C(=O)c2ccc3c(c2)C(=O)N(Cc2ccco2)C3=O)cc1,2.6,nt,7%,-1.4,nt,1.1,0.7
Cc1ccc(-n2nc3c(=O)n(CC(=O)NCCc4ccc(Cl)cc4)nc(C)c3c2C)cc1,5.8,-13,nt,1.8,i,2.5,0.71
CCc1nc2c(OCCn3cccc3)cccn2c1N(C)C(=O)c1cccs1,nt,6.5,nt,3.7,i,nt,nt
Cc1cccc(N2CCN(C(=O)C3CCCCC3)CC2)c1C,5.0,nt,6%,-1.6,nt,2.3,0.66
CC(C)NCC(O)COc1c(F)cc(Br)cc1F (centres undefined),5.6,nt,11%,-0.9,nt,5.0,0.73
CC(C)N(Cc1nccn1C)C(=O)CC1C(=O)NCCN1Cc1ccc(F)cc1 (centres undefined),3.0,-12,nt,3.0,i,3.1,0.67
COCCNC(=O)C(NC(=O)C1CCCCC1)C12CC3CC(CC(C3)C1)C2 (centres undefined),2.2,-2.3,4%,-1.4,i,2.8,0.68
CCCCC(=O)N(c1ccc(OC)cc1)C1C=CS(=O)(=O)C1 (centres undefined),1.0,-2.2,0%,3.6,i,2.0,0.72
Cn1cc(C(=O)N/N=C/C=C/c2ccccc2)ccc1=O,0.1,nt,-12%,0.9,nt,nt,nt
COc1ccc(CCNC(=O)c2nonc2N)cc1,2.7,nt,-1%,-0.3,nt,1.4,0.67
O=C(/C=C/c1ccccc1[N+](=O)[O-])NCCc1ccc(F)cc1,-3.1,1.0,-3%,3.4,i,-1.5,0.72
O=C1OC(Cc2ccccn2)C(O)=C1C1=NCCCCN1 (centres undefined),4.5,nt,nt,-8.1,nt,0.9,0.7
CC(C)N1C(=O)N(c2ccc(Cl)cc2)C(C)(O)CC1(C)C (centres undefined),-3.6,-2.7,-8%,-6.4,i,-0.8,0.66
CN1C(=O)N(CN2CCCCC2)C2C1N(C)C(=O)N2CN1CCCCC1 (centres undefined),4.5,nt,3%,0.2,nt,0.8,0.7
Cc1c(-c2ccccc2)c(=O)oc2ccc(O)cc12,?,1.2,1%,1.9,i,-0.8,0.7
Cc1onc(-c2ccccc2)c1C(=O)O/N=C(\N)c1ccc([N+](=O)[O-])o1,4.3,nt,3%,6.2,i,nt,nt
COc1cc(C2Nc3ccccc3C(=O)N2c2ccc(Cl)cc2)c(Cl)cc1OCC(=O)O (centres undefined),?,nt,-4%,0.5,nt,i,0.69
CN(C)c1ccccc1C(=O)N1CCC(n2nccc2NC(=O)C2CC2)CC1,-1.5,0.9,nt,-2.0,i,-2.2,0.68
CC(=O)C1=C(S(=O)(=O)c2ccc(C)cc2)CS(=O)(=O)C1,-1.4,-7.8,-4%,-0.7,i,2.5,0.68
CC1CCc2nc(NC(=O)CN3CCOCC3)sc2C1 (centres undefined),-0.8,nt,2%,-4.6,nt,2.8,0.72
CNc1cc(CSC)nc(SCc2ccc(Cl)c(Cl)c2)n1,5.1,nt,29%,1.1,nt,2.6,0.73
CC(=O)n1cc(-c2ccncc2)c2ccccc21,1.3,-1.5,-1%,5.8,i,3.9,0.66
COCCCNC(=S)NNC(=S)Nc1cccc(Cl)c1,1.0,nt,26%,1.8,i,0.4,0.59
O=C(Nn1cnnc1)c1cc(Br)ccc1Cl,2.6,-0.6,nt,1.0,i,1.4,0.68
O=C(CCCOC(=O)c1ccc(O)cc1O)c1ccc(F)cc1,-0.3,0.6,6%,1.9,i,2.7,0.65
CN(C)c1ccc(/C=N/NC(=O)c2ccc3c(c2)OCCO3)cc1,0.8,4.6,-5%,-4.2,i,nt,nt
C=CCNS(=O)(=O)c1ccc(N2C(=O)c3ccccc3C2=O)cc1,0.7,0.9,nt,-1.8,i,-5.0,0.63
CC(C)(C)NCC1(CO)SC(N)=NC1=O (centres undefined),1.0,nt,14%,2.2,nt,3.1,0.73
COc1ccccc1OCc1ccc(C(=O)N2CCCCC2)o1,2.9,-2.0,nt,-0.4,i,-0.3,0.67
COc1cccc(CN2C(=O)CCC2(C)C(=O)NCCc2ccc(OC)c(OC)c2)c1 (centres undefined),-2.8,-2.8,0%,2.5,i,2.6,0.65
CCc1ccc(C2=NN(CCC(=O)NCC3CCCO3)C(=O)CC2)cc1 (centres undefined),7.1,1.4,nt,1.2,i,-1.5,0.67
Cc1sc(NC(=O)Cc2ccc3c(c2)OCO3)nc1-c1ccc2c(c1)CCN2C(=O)c1cccc(F)c1,-0.3,nt,5%,-2.7,nt,0.5,0.68
O/N=C/c1cc(Br)cs1,7.3,-1.4,-3%,4.5,i,nt,nt
Cc1ccnc2nc(C(=O)Nc3ccc4c(c3)OCO4)nn12,?,nt,?,-1.8,nt,5.7,0.7
O=[N+]([O-])c1ccc(O)c(P(=O)(c2ccccc2)c2ccccc2)c1,1.9,2.0,nt,3.0,i,7.9,0.63
CCCCN1C2=C(C(=O)CC(C)(C)C2)C(c2ccccc2)C2=C1c1ccccc1C2=O (centres undefined),4.9,nt,70%,-1.1,nt,2.6,0.71

# 2 entries from above, as labelled records:
CC(C)(C)NCC1(CO)SC(N)=NC1=O (centres undefined)
  RanGTP-Imp inh: 1.0
  MLL AF4-AF9 inh: nt
  Vif A3G: 14%
  HNF4A DNA FP: 2.2
  FGF22 binding: nt
  UCH37 DUB inh: 3.1
  E coli growth: 0.73

COc1ccccc1OCc1ccc(C(=O)N2CCCCC2)o1
  RanGTP-Imp inh: 2.9
  MLL AF4-AF9 inh: -2.0
  Vif A3G: nt
  HNF4A DNA FP: -0.4
  FGF22 binding: i
  UCH37 DUB inh: -0.3
  E coli growth: 0.67

# Following part
SMILES,RanGTP-Imp inh,MLL AF4-AF9 inh,Vif A3G,HNF4A DNA FP,FGF22 binding,UCH37 DUB inh,E coli growth
COc1ccc(C(=O)c2cc(C(C)=O)c(Nc3ccccc3)s2)cc1,5.5,nt,?,-1.5,nt,-13,0.68
O=C(NC1CCCCCC1)c1nc2ncccn2n1,2.4,nt,6%,-2.2,nt,0.1,0.76
COCCCN1C(=O)C(CC(=O)NCc2cccs2)CC(C(=O)N(C)C)=C1C (centres undefined),nt,0.2,-5%,1.9,i,nt,nt
Fc1cccc2sc(Nc3nnc(-c4ccco4)o3)nc12,5.2,nt,5%,1.1,nt,-38,0.68
Cc1c(C(=O)Nc2ccc(-c3nnc4n3CCCCC4)cc2)oc2c1ccc1ccccc12,-1.0,nt,6%,-5.2,nt,-34,0.69
Cc1ccc(C2(C)NC(=O)N(CC(=O)NCc3cccs3)C2=O)cc1 (centres undefined),0.3,-2.5,-4%,2.9,i,-2.8,0.67
O=C(C1=C[C@@H](C2CC2)C[C@@H](OCc2ccc(CO)cc2)O1)N1CCN(Cc2ccc3c(c2)OCO3)CC1,-0.2,3.7,4%,0.2,i,3.5,nt
COc1ccc(S(=O)Cc2ccc(C(=O)N3CCN(c4cccc(C)c4C)CC3)o2)cc1 (centres undefined),-0.1,nt,nt,3.3,nt,4.5,0.7
O=C(CNC(=O)c1ccccc1F)c1ccc(Br)cc1,-3.0,-16,-23%,-4.8,i,3.6,0.67

# These rows are one share of the data (hit frequency here may not be typical).
